NPYLR7 agonist = mosquito NPYLR7 agonism; HEK293T NPYLR7/Galpha15, GCaMP6s calcium fluorescence; activation, % at 10 µM; hit rate 0.15% among 270,000; in the data active means activation above about 40%;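 further: 0% = vehicle and 100% = reference agonist at the receptor; some compounds past the cut are filed as inactive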
NPYLR7 agonist max-min = second read-out of NPYLR7 agonist, no call of its own (marks repeat the call); activation, %; measured here: Max-Min RFU normalised activation; some inactives read as strong as hits;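 span of the calcium signal over five minutes; 0% = vehicle and 100% = native peptide agonist; compound fluorescence can raise it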
* hit, by the source's call; & = joins results of further samples.

1	NCCc1nc(NCc2ccccc2-n2cncn2)c2ccccc2n1
2	COc1ccccc1-n1c(CNC(=O)c2ccco2)nnc1SCC(=O)Nc1ccc(F)cc1
3	CCOC(=O)C1(Cc2ccccc2C)CCCN(Cc2cnc(C)s2)C1 (stereo not given)
4	O=C1c2nc(Nc3ccncc3)ccc2CN1C1(C(=O)NC2CC2)CC1
5	O=C(NCCCn1nnc2ccccc21)c1cn(C2CCCCC2)nn1

assay / compound | 1 | 2 | 3 | 4 | 5
NPYLR7 agonist | -6.0 | 11.1 | 3.8 | 6.2 | 6.8
NPYLR7 agonist max-min | -6.0 | 7.8 | 0.3 | 2.1 | 4.1

6	Cc1cc(C)n2nc(SCC(=O)Nc3cccc([N+](=O)[O-])c3)nc2n1
7	COc1cccc2c1C(=O)CC1(CCN(CC(=O)Nc3ccccc3Sc3ccccc3)CC1)O2
8	Cn1c(=O)c2c(nc(NCCO)n2CCCc2ccccc2)n(C)c1=O
9	O=C1CCC(=O)N1NC(=O)C12CC3CC(CC(C3)C1)C2
10	COCc1nnc(NC(=O)CN2CCCC2c2cc(C(C)C)on2)s1 (stereo not given)

assay / compound | 6 | 7 | 8 | 9 | 10
NPYLR7 agonist | -0.4 | 10.8 | 1.3 | -1.0 | 9.2
NPYLR7 agonist max-min | -5.2 | 6.8 | -3.2 | 61.9 | 1.8

11	NC1=NC(=O)/C(=C\c2ccc(O)c([N+](=O)[O-])c2)S1
12	Cc1ccc(Sc2ccc(NC(=O)Cn3cnnn3)cc2)cc1C
13	O=C(c1cc2n(n1)CCN(Cc1ccc3nonc3c1)C2)N1CCCC1
14	CC1(C)CN(CCS(C)(=O)=O)C1(C)C
15	COc1ccc(-c2cc3c(SCc4ccc(C)cc4)nccn3n2)cc1

assay / compound | 11 | 12 | 13 | 14 | 15
NPYLR7 agonist | 1.3 | 8.2 | -0.6 | 3.5 | -3.6
NPYLR7 agonist max-min | -3.5 | 9.2 | 9.6 | -0.7 | -10.1

16	Brc1cnc(N2CCOCC2)nc1
17	C=CCNC(=O)c1ccccc1-c1ccccc1
18	Cn1c(-c2ccncc2)nn(CN2CCc3sccc3C2c2ccccc2)c1=S (stereo not given)
19	CCc1cc(Cl)c(OC)c(C(=O)NCC2CCCN2CC)c1O (stereo not given)
20	N#Cc1ccccc1C(=O)N1CCOC(c2ccccc2)C1 (stereo not given)

assay / compound | 16 | 17 | 18 | 19 | 20
NPYLR7 agonist | 4.8 | 0.2 | 4.6 | -5.6 | 2.0
NPYLR7 agonist max-min | 3.9 | -0.4 | 9.2 | -11.9 | 6.4

Three structures out of the list, ordered by count of non-hydrogen atoms, ascending:
16	Brc1cnc(N2CCOCC2)nc1
17	C=CCNC(=O)c1ccccc1-c1ccccc1
18	Cn1c(-c2ccncc2)nn(CN2CCc3sccc3C2c2ccccc2)c1=S (stereo not given)

assay / compound | 16 | 17 | 18
NPYLR7 agonist | 4.8 | 0.2 | 4.6
NPYLR7 agonist max-min | 3.9 | -0.4 | 9.2

More entries.
21	NC(=O)C1CCN(C(=O)/C=C/c2ccccc2Br)C1 (stereo not given)
22	O=C(CSc1nnc2c(Cl)cc(Cl)cn12)NCC12CC3CC(CC(C3)C1)C2
23	CCc1ccc(S(=O)(=O)Nc2ccc(-c3ccc4nnc(C)n4n3)cc2)s1
24	O=S(=O)(c1ccccc1)N(CC(F)(F)F)S(=O)(=O)c1ccccc1
25	COC(=O)c1ccc2c(c1)CC(CNC(=O)c1cccc([N+](=O)[O-])c1)O2 (stereo not given)

assay / compound | 21 | 22 | 23 | 24 | 25
NPYLR7 agonist | 3.1 | 0.5 | -12.0 | 10.0 | 10.3
NPYLR7 agonist max-min | 2.0 | 0.7 | -6.8 | 5.8 | 22.8

Results in sequence from the entries so far.
Compounds 21–25 in NPYLR7 agonist max-min read 2.0, 0.7, -6.8, 5.8, 22.8
Compounds 21–25 in NPYLR7 agonist read 3.1, 0.5, -12.0, 10.0, 10.3

Additional structures follow.
26	CC(O)CNC(c1nc(-c2ccc(Br)cc2)no1)C(C)C (stereo not given)
27	Cc1ccc(C)c(NC(=O)Cn2c3ccccc3c(=O)c3ccccc32)c1
28	Cc1cccc(CC(=O)NCCn2ncccc2=O)c1
29	O=C(CC1C(=O)NCCN1Cc1ccccc1)NCc1scnc1-c1ccccc1 (stereo not given)
30	Cc1cc(=O)[nH]c(NN=Cc2ccc(O)c(O)c2O)n1

assay / compound | 26 | 27 | 28 | 29 | 30
NPYLR7 agonist | 15.9 | -0.8 | 5.4 | 5.5 | -6.8
NPYLR7 agonist max-min | 17.8 | -5.9 | 3.4 | 3.5 | -12.0

31	CCCCN(CC(=O)N(Cc1ccco1)Cc1cccn1C)C(=O)Nc1cccc(C)c1
32	NC(=O)CN1CCNCC1
33	CNC(=O)c1ccc(SC)c([N+](=O)[O-])c1
34	CC(C)CN(CCc1nc(-c2ccc3c(c2)OCO3)no1)CC(O)CN1CCOCC1 (stereo not given)
35	COc1ncccc1-c1cc2nc(NCCNC(C)=O)n(C)c(=O)c2s1

assay / compound | 31 | 32 | 33 | 34 | 35
NPYLR7 agonist | 4.6 | 1.7 | 3.9 | 10.9 | 0.7
NPYLR7 agonist max-min | -1.0 | 5.8 | 2.1 | 14.0 | -2.2

36	CC(C)CCNC(=O)COC(=O)c1cc2c(s1)-c1ccccc1OC2
37	CN(CC1OCCO1)C(=O)CSc1nnc2ccc(C(F)(F)F)cn12
38	Cc1nc(-c2cc(NCc3ccccn3)nc3[nH]ccc23)cc(C(C)C)n1
39	CC(C)CN(CC(=O)N(CCc1c[nH]c2ccccc12)Cc1ccc(C(F)(F)F)cc1)S(=O)(=O)c1cc(Cl)ccc1Cl
40	COc1cccc(OCC2c3ccsc3CCN2C(=O)CN(CC2CCCO2)C(=O)c2cccc(Cl)c2)c1 (stereo not given)

assay / compound | 36 | 37 | 38 | 39 | 40
NPYLR7 agonist | 10.0 | 1.7 | 22.6 | -0.2 | -4.5
NPYLR7 agonist max-min | 7.7 | -0.8 | 7.0 | 8.8 | 1.0

Compounds listed so far that contain two or more sulfur atoms, in the order listed:
18	Cn1c(-c2ccncc2)nn(CN2CCc3sccc3C2c2ccccc2)c1=S (stereo not given)
23	CCc1ccc(S(=O)(=O)Nc2ccc(-c3ccc4nnc(C)n4n3)cc2)s1
24	O=S(=O)(c1ccccc1)N(CC(F)(F)F)S(=O)(=O)c1ccccc1

assay / compound | 18 | 23 | 24
NPYLR7 agonist | 4.6 | -12.0 | 10.0
NPYLR7 agonist max-min | 9.2 | -6.8 | 5.8

Continuation.
41	CN(C)CCN(Cc1csc(COc2cc(Cl)ccc2Cl)n1)C(=O)c1ccccc1
42	C=CCn1c(=O)c2c(nc3n2CC(C)CN3Cc2ccccc2)n(C)c1=O (stereo not given)
43	CC1C(=O)N(c2ccc([N+](=O)[O-])cc2)CCN1C(=O)CCc1ccccc1 (stereo not given)
44	Cc1ccc(C(C)NC(=O)CN(C)Cc2nc(-c3ccncc3)no2)cc1 (stereo not given)
45	COc1ccc(N2C(=O)CCC(C(C)=O)=C2C)cc1

assay / compound | 41 | 42 | 43 | 44 | 45
NPYLR7 agonist | 20.3 | 1.8&-0.3 | -4.3 | 23.3 | -4.4
NPYLR7 agonist max-min | 15.2 | -0.1&-3.2 | -4.0 | 10.9 | -7.4

By substructure: the entries above containing a thiophene ring, fused or not.
18	Cn1c(-c2ccncc2)nn(CN2CCc3sccc3C2c2ccccc2)c1=S (stereo not given)
23	CCc1ccc(S(=O)(=O)Nc2ccc(-c3ccc4nnc(C)n4n3)cc2)s1
35	COc1ncccc1-c1cc2nc(NCCNC(C)=O)n(C)c(=O)c2s1
36	CC(C)CCNC(=O)COC(=O)c1cc2c(s1)-c1ccccc1OC2
40	COc1cccc(OCC2c3ccsc3CCN2C(=O)CN(CC2CCCO2)C(=O)c2cccc(Cl)c2)c1 (stereo not given)

assay / compound | 18 | 23 | 35 | 36 | 40
NPYLR7 agonist | 4.6 | -12.0 | 0.7 | 10.0 | -4.5
NPYLR7 agonist max-min | 9.2 | -6.8 | -2.2 | 7.7 | 1.0

Following part:
46	Cc1ccc(Oc2ncccc2CNCc2cnn(C)c2C)cn1
47	COc1ccc(-n2nnc3c(SCc4ccccc4Cl)ncnc32)cc1
48	COc1cc(C(=O)Nc2nc(CN3CCC(C)CC3)cs2)cc(Cl)c1OC
49	C=CCn1c(SCc2cc3c(cc2Cl)OCO3)nnc1-c1cccnc1
50	CC(CNC(=O)Cc1ccc2ccccc2c1)N1CCN(C)CC1 (stereo not given)

assay / compound | 46 | 47 | 48 | 49 | 50
NPYLR7 agonist | 6.6 | 4.6 | 3.8 | 14.2 | -5.0
NPYLR7 agonist max-min | 3.9 | 7.3 | 1.8 | 10.6 | -5.3

51	CCCCC(CC)C(=O)N1CCc2cc(OC)c(OC)cc2C1C(C)C (stereo not given)
52	CCCCN(CC(=O)N1c2ccccc2-n2cccc2C1c1ccc(F)cc1)C(=O)C1CCC1 (stereo not given)
53	O=C1CCSc2ccccc2N1
54	CC1(C)O[C@@H]2C[C@@](OCc3cccc(Cl)c3)(C(=O)NCC3CCCO3)CC(OCc3ccccc3C#N)[C@@H]2O1 (stereo not given in full)
55	COC1(C)CC(N(C)CC(=O)N(C)C(C)c2ccc(F)cc2)C1(C)C (stereo not given)

assay / compound | 51 | 52 | 53 | 54 | 55
NPYLR7 agonist | 13.6 | 7.2 | 5.6 | 1.9 | 3.2
NPYLR7 agonist max-min | 3.2 | 11.3 | 9.2 | 10.1 | 1.2

56	COCCN=C(NC(=O)c1ccc(OC)cc1)OC(C)C
57	Cc1ccn2c(=O)cc(CN3CCC(=O)N(CC4CC4)C(C(C)C)C3)nc2c1 (stereo not given)
58	CCSc1nnc(NC(=O)CSc2nc3[nH]ncc3c(=O)[nH]2)s1
59	Cc1ccc2nc(-c3ccc(NC(=O)c4ccc(I)cc4)cc3)oc2c1
60	CCC(C)N(Cc1ccc(OS(=O)(=O)c2ccc(F)cc2)cc1)C(=O)Nc1ccccc1F (stereo not given)

assay / compound | 56 | 57 | 58 | 59 | 60
NPYLR7 agonist | -1.1 | 0.2 | 2.1 | -11.9 | -2.5
NPYLR7 agonist max-min | 7.1 | 1.5 | 1.5 | -13.2 | -10.7

61	O=C(Nc1ccccc1C(F)(F)F)c1cnn2c(C(F)(F)F)cc(-c3cccs3)nc12
62	COc1ccc(-n2ccsc2=S)cc1
63	Cc1nonc1NC(=O)C1(C)CCCN(C(=O)c2ccccc2)C1 (stereo not given)
64	CCCCn1ncc(C)c1NC(=O)C1COc2ccccc2O1 (stereo not given)
65	C/C=C(\C)C(=O)Nc1ccc(-c2cccc(-c3cccc(OC)c3)n2)cc1
66	Cc1cc(NC(=O)C(C)n2cncn2)ccc1NC(=O)C(C)(C)C (stereo not given)

assay / compound | 61 | 62 | 63 | 64 | 65 | 66
NPYLR7 agonist | 10.2 | -6.9 | 5.9 | 8.4 | -5.7 | -8.0
NPYLR7 agonist max-min | 10.1 | -8.5 | 2.4 | -3.0 | -10.4 | -8.5

Screens (PubChem BioAssay)

Some of the compounds tested; rates above refer to the full screens.
